Menin-MLL FL inh – qHTS Assay for Inhibitors Targeting the Menin-MLL Interaction in MLL Related Leukemias: Competition With Fluorescein Labeled MLL-derived Peptide | Fluorescence polarization, fluorescein-MLL peptide displacement from menin | FP activity change, % at 61.4 µM | 290,000 tested, under 10 active; inconclusive = falling polarisation curve, or a change in total fluorescence; inactive = total fluorescence flat and polarisation flat or rising; no compound was filed as active; the % refers to the polarisation; negative = inhibition;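 also: % of control where 0% means no effect; inhibitors lower the polarisation; unlabelled MLL peptide was the positive control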
gsp antagonist – qHTS for Antagonists of gsp, the Etiologic Mutation Responsible for Fibrous Dysplasia/McCune-Albright Syndrome: qHTS | gsp-mutant cells, cAMP HTRF, 30 min; control for the full effect not named in the record | Potency, µM (top dose mostly 76.9 µM), inactives show top-dose activity change, negative = inhibition, hits mostly inhibitors | 340,000 tested, 0.4% active | AID 624288, 2012; active = falling curve of any shape with a large fitted effect; inconclusive = falling curve, mostly with a smaller effect; inactive = flat or rising curve; cell line not stated here;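 also: intracellular cAMP measured with PDE inhibitor Ro 20-1724 present during compound exposure; potency is read from the fitted curve at half-maximal effect; % is scaled to controls: 0 for no effect and ±100 for the full control effect; nearly all actives have a fitted effect of over 65% in size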
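HTRF cAMP measurement after 30 min RT detection following 30 min, 37C compound treatment alongside […] (added as 300 uM solution) in G418-selected cells seeded at 2000/well and grown 16–24 h.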
Sfp PPTase inh – qHTS Assay for Inhibitors of Bacillus subtilis Sfp phosphopantetheinyl transferase (PPTase). 4'-phosphopantetheinyl transferase ffp (Bacillus subtilis), Q9F4F7. Biochemical Sfp PPTase activity, qHTS. Potency, µM, for the others: max response, negative = inhibition, hits mostly inhibitors. 310,000 tested, 3.5% active. AID 1490, 2009; active = well fitted inhibition curve with a large enough effect; inconclusive = small, poorly fitted or top-dose-only effect, or another doubt; inactive = no such curve, though single readings can be large or run the other way;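 also: the enzyme is Sfp with the accession as filed and its product quenches rhodamine fluorescence; potency is read from the fitted curve at half-maximal effect; 0% = enzyme reaction without inhibitor and -100% = no enzyme wells; top concentration of the series not given in the record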
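Reaction rates are the 30-min fluorescence difference (ex 525, em 598 nm) in wells containing 15 nM Sfp, 5 uM rhodamine-CoA and 12.5 uM BHQ-2-YbbR at pH 7.6 with 10 mM MgCl2.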
ClpP mod – qHTS Assay for Activators of ClpP | AID 651965, 2013 | 340,000 tested, 1.9% active | ATP-dependent Clp protease proteolytic subunit (Bacillus subtilis (strain 168)), P80244 | purified B. subtilis ClpP, FRET peptide cleavage, 20 min | Potency, µM (highest dose often 57.5 µM), for the others: at the highest dose activity change, negative = active; active = well fitted falling curve with a large enough effect; inconclusive = small, poorly fitted or top-dose-only effect; inactive = no such curve, though single readings can be large or run the other way; also: potency is read from the fitted curve at half-maximal effect; the source files actives as falling curves though it sought activators and does not explain the sign; nearly all actives have a fitted effect of over 65% in size; many hits overshoot -100%
Target sequence (P80244 whole entry, looked up): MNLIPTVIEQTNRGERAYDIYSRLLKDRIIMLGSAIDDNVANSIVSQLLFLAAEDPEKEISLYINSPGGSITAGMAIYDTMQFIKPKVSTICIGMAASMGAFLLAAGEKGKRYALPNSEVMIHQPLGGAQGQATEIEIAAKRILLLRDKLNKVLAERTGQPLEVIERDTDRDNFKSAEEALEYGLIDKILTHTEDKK
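ClpP 10 microg/mL final, pH 8 Tris/KCl buffer with BSA, glycerol, Tween-20; compound pinned in; FRET-FV substrate; RT 20 min; Ex320/Em430; ΔFRET vs ADEP 5.8 microM, DMSO, no enzyme.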
TRPML1 blocker – qHTS for Inhibitors of the Human Mucolipin Transient Receptor Potential 1 (TRPML1); TRPML1-inducible cells, Ca2+ dye fluorescence, FDSS; active compounds read low; inhibition of EC80 agonist-evoked calcium signal; activity change, negative = inhibition, % (no concentration beside the values); 390,000 tested, 0.02% active; Mucolipin-1 (Homo sapiens), Q9GZU1; in the data active means activity change below about -50%; inconclusive means about -30% to -50%; inactive means above about -30%;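 also: stimulus is agonist 54-4 at its EC80 concentration; % is scaled to controls: 0 for no effect and ±100 for the full control effect; compound concentration not given in the record; the text of the record puts the active cut at -80%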
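Tet-induced TRPML1-DL cells loaded with Ca8 no-wash calcium dye were read kinetically on FDSS. Compound addition was followed by EC80 agonist 54-4 (4 uM final); inhibition was read over 110 s.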
gsp agonist – qHTS for Agonist of gsp, the Etiologic Mutation Responsible for Fibrous Dysplasia/McCune-Albright Syndrome: qHTS; 340,000 tested, 0.13% active; Potency, µM (highest dose often 76.9 µM), for inactives: top-dose activation (cAMP increase), most hits filed as activators; gsp mutant cells, cAMP HTRF, 30 min; control for the full effect not named in the record; active = well fitted activation curve with a large enough effect; inconclusive = small, poorly fitted or top-dose-only effect, or another doubt; inactive = no such curve, though single readings can be large or run the other way; cell line not stated here;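 also: phosphodiesterase inhibitor Ro 20-1724 added with compounds to block cAMP breakdown; potency is read from the fitted curve at half-maximal effect; nearly all actives have a fitted effect of over 60% in size; about a fifth of the inactives were tested at one dose only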
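Cells in DMEM/10% FBS with G418 were pretreated with compounds in DMSO plus […] (300 uM stock) for 30 min at 37C. cAMP was measured by HTRF (cAMP-d2 plus anti-cAMP antibody-K) after 30 min at room temperature.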
TRPV1 PAM – HTS Assay for Compounds that Act as Potentiators of the Vanilloid Receptor 1. Transient receptor potential cation channel subfamily V member 1 (Homo sapiens), Q8NER1. TRPV1-expressing cells, Fluo-8 calcium influx, capsaicin EC20 potentiation; host cell line not named in the record; control for the full effect not named in the record. potentiation, % at 8.33 µM. 320,000 tested, 0.02% active. AID 540277, 2011; active means potentiation above 80%; inconclusive means 30% to 80%; inactive means below 30%; also: 0% is about no effect
Target sequence (Q8NER1 whole entry, looked up): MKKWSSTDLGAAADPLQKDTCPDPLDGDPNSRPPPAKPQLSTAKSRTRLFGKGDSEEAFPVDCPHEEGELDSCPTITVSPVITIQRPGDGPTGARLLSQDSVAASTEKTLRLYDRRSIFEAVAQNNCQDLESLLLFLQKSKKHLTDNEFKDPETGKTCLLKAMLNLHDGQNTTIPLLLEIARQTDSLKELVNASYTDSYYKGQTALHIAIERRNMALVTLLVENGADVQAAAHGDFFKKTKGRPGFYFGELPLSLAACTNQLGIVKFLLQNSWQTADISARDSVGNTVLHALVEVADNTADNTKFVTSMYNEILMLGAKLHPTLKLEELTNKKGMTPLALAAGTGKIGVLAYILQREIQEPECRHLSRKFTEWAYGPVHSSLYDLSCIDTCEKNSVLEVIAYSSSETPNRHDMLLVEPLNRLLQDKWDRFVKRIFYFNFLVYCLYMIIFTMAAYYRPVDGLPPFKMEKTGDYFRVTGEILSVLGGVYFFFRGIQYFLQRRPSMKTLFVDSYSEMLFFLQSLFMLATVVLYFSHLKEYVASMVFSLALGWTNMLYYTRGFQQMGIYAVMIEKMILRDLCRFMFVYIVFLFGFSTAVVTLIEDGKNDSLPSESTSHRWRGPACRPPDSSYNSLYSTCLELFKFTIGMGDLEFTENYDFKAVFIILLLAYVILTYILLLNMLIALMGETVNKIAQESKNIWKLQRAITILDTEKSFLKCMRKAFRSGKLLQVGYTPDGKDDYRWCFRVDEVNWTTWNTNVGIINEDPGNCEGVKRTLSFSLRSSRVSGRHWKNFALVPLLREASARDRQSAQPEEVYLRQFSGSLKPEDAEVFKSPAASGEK
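Cells expressing TRPV1 were dye-loaded with Fluo-8 and read kinetically: 10 s baseline, 3 min after compound (agonist portion), then 2 min after EC20 capsaicin (allosteric enhancer portion). Calcium-bound dye fluorescence at 480/520 nm.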
Active calls of the source: *; ? = inconclusive; · = no result given; & = joins results of further samples; ! = not active in a repeat; [ ] = dose if it differs, or a comment. This is a subset. The share of hits here may be higher or lower than overall.

SMILES	Menin-MLL FL inh	gsp antagonist	Sfp PPTase inh	ClpP mod	TRPML1 blocker	gsp agonist	TRPV1 PAM
C[C@H](O)[C@H]1CC[C@H]2[C@@H]3CCC4=CC(=O)CC[C@]4(C)[C@H]3CC[C@]12C	2.2	-12%	4%	-2.5%	18	·	3
CCOP(=O)(C(NC(=O)c1ccccc1Cl)=C(Cl)Cl)c1ccccc1 (stereo not given)	2.8	13%	18%	3.9%	-9	-11%	5
CN1CCN(c2nccc3c2ncn3C)CC1	0.3	4%	5%	-1.2%	-8	18%	-1
CC(=NCc1ccc2c(c1)OCO2)c1c(O)n(C)c(=O)n(C)c1=O	0.7	-11%	-25%	-0.1%	-4	16%	3
N=C1c2ccccc2CN1NC(=O)C1CC1	8.5	9%	-9%	-3.0%	15	2%[15.4 µM]	-1
CC(=O)OC1N=C(c2ccccc2)c2cc(C)ccc2NC1=O (stereo not given)	2.4	-7%	18%	?	-17	10%	6
C#C[C@]1(O)CCC2C3CCC4=C/C(=N/OCC(=O)NC(C)C(=O)NC(CCSC)C(=O)O)CC[C@]4(C)C3CC[C@@]21C (stereo not given in full)	-16	-1%	-23%	1.1%	-8	-2%	10
O=C1CN=C(c2ccccc2)c2cc(Cl)ccc2N1	·	-13%	·	-3.0%	27	·	·
Nc1c(Br)cc2c3c(cccc13)-c1ccccc1-2	·	-7%	·	0.3%	-9	-3%[15.4 µM]	·
O=C(CN1CCCC1=O)N1CCOCC1	-1.6	13%	7%	1.7%	0	10%	-1
CN(C)c1ccc(NC(=O)Oc2ccccc2)cc1	2.4	?	79µM*	1.3%	-2	-1%	-17
COC(=O)C1=C(c2ccccc2OCc2ccccc2)C[C@@H]2CC[C@H]1N2C(=O)NCc1ccccc1	·	-22%	·	-3.0%	5	·	-6
COc1cc(C2C(C#N)=C(N)Oc3cc(O)ccc32)cc(OC)c1OC (stereo not given)	?	16%	2%	-2.2%	13	-2%	-11
c1ccc(C2CC2)c(OCC2=NCCN2)c1	0.4&-0.5&-13	5%	16%&16%&21%	-0.5%	-10	·	1
CON(C)C(=O)Nc1ccc(Cl)cc1	-0.5	8%	-7%	-5.5%	8	?	-3
O=C(COc1ccc(Br)cc1)N1CCN(Cc2c[nH]c3ccccc23)CC1	3.6	14%	-19%	2.1%	-15	-7%	-12
CC(C)OP(=O)(O)NC(=O)c1ccccc1	-0.3	15%	4%	-1.5%	-19	2%[15.4 µM]	0
Cn1cc(C(=O)NC2CC2)c2ccccc21	-0.9	11%	3%	·	-11	-4%[15.4 µM]	10
Cc1ccc(CC(=O)N2CCN(C)CC2)cc1	4.5	6%	7%	-1.0%	8	-6%	1
COC(=O)C1=C(c2ccc(S(C)(=O)=O)cc2)C[C@@H]2CC[C@H]1N2C(=O)NCc1ccccc1	·	7%	·	0.6%	-5	-10%	·
CCOP(=O)(OCC)C(O)c1ccc(Br)cc1 (stereo not given)	-1.3	4%	19%	2.2%	-21	28%	3
CCOP(=O)(OCC)C(NC(=O)CN1C(=O)c2ccccc2S1(=O)=O)C(Cl)(Cl)Cl (stereo not given)	1.5	10%	21%	4.8%	11	2%[15.4 µM]	-2
COc1ccc2c(c1)[nH]c1c(C)nccc12	0.5	11%	16%&-14%&-21%&3%&16%	?	-24	·	-8
CP(=O)(O)CN1CCCCC1	0.2	-2%	-8%	-2.7%	-6	-49%[inhibitor]	-5
O=C1NC(=O)N(Cc2ccccc2)C(=O)/C1=C\c1ccco1	?	-16%	-29%	·	20	19%[15.4 µM]	-14
O=c1ccc2cc(O[C@@H]3O[C@@H](CO)[C@H](O)[C@@H](O)[C@@H]3O)c(O)cc2o1	7.8	2%	4%	3.5%	-3	?	13
CCC(C)n1c(O)c(C=NCc2cccnc2)c(=O)[nH]c1=S (stereo not given)	4.1	-2%	0%	·	9	29%	18
N#Cc1ccc(NC(=S)N2Cc3ccccc3-n3nncc3C2)cc1	·	·	·	1.5%	5	-36%	·
Cn1c(O)c(C=NCCCCCCCCCCC(=O)O)c(=O)n(C)c1=O	1.9	-1%	5%	-4.7%	22	?	9
O=C(c1ccc(N2CC3CC(C2)c2cccc(=O)n2C3)c([N+](=O)[O-])c1)N1CCCCC1 (stereo not given)	-4.3	-6%	9%	3.3%	14	-3%	1
O=P(O)(Oc1ccccc1)c1ccccc1	·	8%	·	1.1%	3	15%	·
COC(=O)c1ccc(C(=O)OC)c(NC(=O)Oc2ccccc2)c1	-2.2	18%	8%	2.8µM*	-14	-28%	-28
COc1cccc(C(=O)C2CCCN(Cc3cccc(C)n3)C2)c1 (stereo not given)	8.2	0%	?	-3.9%	-11	0%	12
NC(=O)C1CCN(/C=C2\C(=O)NC(=O)N(Cc3ccco3)C2=O)CC1	?	7%	?	·	34	-8%[15.4 µM]	8
C1CCCN(C2CCNCC2)CC1	-1.3	-10%	-5%	0.6%	-7	0%[15.4 µM]	-1
COc1cccc(C(=O)N2CCC3(CC2)OCCO3)c1	3.0	6%	27%	-0.1%	10	-22%	-1
CN(C(=O)c1cccc(NC(=O)Cc2cccc([N+](=O)[O-])c2)c1)C1CCCCC1	·	?	·	2.2%	-4	13%	·
COC(=O)[C@H]1C[C@@H]1[C@H](NP(=O)(c1ccccc1)c1ccccc1)c1ccccc1	-0.5&-5.7	-5%	-3%&15%	1.6%	11	-1%	-40
Nc1c([N+](=O)[O-])cc(F)c(N2CCNCC2)c1Br	-2.5	18%	-12%	14%	27	-2%	1
CSc1nc2ccccc2c(=O)n1-c1cccnc1	-0.6	3%	5%	·	-7	3%[15.4 µM]	5
CCOc1ccc(NC(=S)N2CCC(NC(=O)c3ccccc3C)CC2)cc1	-3.1	9%	2%	·	-9	-72%[inhibitor]	7
CC(=O)c1c(COC(=O)c2cccnc2)nc2ccccc2[n+]1[O-]	-2.3	3%	3%	-0.2%	-1	?	8
CCOC(=O)c1c(C)n(Cc2ccc3c(c2)OCO3)c2ccc(O)cc12	6.7	-10%	-10%	-17%	-8	15%	15
COc1ccccc1C(=Cc1ccc([N+](=O)[O-])cc1)C(=O)O	·	·	·	0.4%	0	0%	·
COc1ccc(NP2(=O)OCC(C)(N)CO2)cc1 (stereo not given)	·	4%	·	-2.3%	-12	-10%	·
Nc1cc(Cl)cc(Cl)c1	·	7%	·	0.6%	19	·	-2
c1ccc(-c2nnc(SCc3ccncc3)o2)cc1	·	·	·	-0.7%	-7	-90%[inhibitor]	·
Cn1c(O)c(C=NCCN2CCNCC2)c(=O)[nH]c1=O	1.8	6%	-13%	0.5%	5	-8%[15.4 µM]	-9
Cc1cnn(C2CCN(C)CC2)c1N	1.1	9%	26%	-3.1%	2	?	2
C[C@]12CC[C@H](O)CC1=CC(=O)C1C2CC[C@]2(C)C(=O)[C@H](O)CC12 (stereo not given in full)	·	8%	·	·	34	-25%	·
The results go on:
SMILES	Menin-MLL FL inh	gsp antagonist	Sfp PPTase inh	ClpP mod	TRPML1 blocker	gsp agonist	TRPV1 PAM
CC12CCC3C(CC=C4CC5(CCC43C)OCCO5)C1CCC2=O (stereo not given)	-7.6	-4%	13%	·	2	-9%	1
CCC1(CCc2ccncc2)C(=O)NC(=O)NC1=O	-5.2	-1%	4%	0.8%	32	-33%[inhibitor]	2
Nc1cncc(C(=O)O)c1	?	18%&-8%	79µM*!	·	2&-9	-7%&-2%[15.4 µM]	-20&1
CCC(=O)OC1(c2cccc(C)c2)CC(C)N(C)CC1C (stereo not given)	3.5	0%	9%	-1.2%	5	-22%	?
C[C@@H](C1CC[C@@]2(O)C3=CC(=O)[C@@H]4C[C@@H](O)[C@@H](O)C[C@]4(C)[C@H]3CC[C@]12C)[C@H](O)CCC(C)(C)O (stereo not given in full)	-0.4	·	2%	·	43	·	·
COc1ccc(CCNCc2sccc2C)cc1	-2.6	0%	-3%	-0.3%	-20	-10%	2
COc1cc(/C=C/C(=O)c2c(O)n(CCc3ccccc3)c(=O)[nH]c2=O)ccc1O	?	-23%	-18%	1.6%	-8	13%	24
Cc1ccc2c(c1)N(N=O)CCC2	3.6	12%	?	-0.3%	-9	2%[15.4 µM]	-10
COc1ccc(C2NCc3ccccc3-n3cccc32)cc1 (stereo not given)	0.4	11%	-6%	-0.8%	26	1%	24
CCn1c(O)c(C=Nc2ccc(N3CCOCC3)cc2)c(=O)n(CC)c1=S	?	-1%	-17%	0.4%	-3	?	2
COC(=O)C1=C(c2ccc(C(C)=O)cc2)C[C@@H]2CC[C@H]1N2C(=O)N1CCCCC1	·	4%	·	1.6%	-12	-19%	-3
C/C(=N\N(C)c1ccccc1)c1c(O)[nH]c(=O)[nH]c1=O	0.8	3%	7%	·	8	-18%	18
COC(=O)C1=C(c2ccccc2OCc2ccccc2)C[C@@H]2CC[C@H]1N2C(=O)NC1CCN(Cc2ccccc2)CC1	·	6%	·	-3.3%	-13	?	-14
Cc1ccsc1C(=O)C1CCCN(Cc2cnc(N3CCOCC3)s2)C1 (stereo not given)	-0.4	-1%	-14%	·	-18	10%[15.4 µM]	-7
c1ccc2sc(C3CCNCC3)nc2c1	3.2	0%	11%	-1.6%	4	19%[15.4 µM]	17
O=C(c1ccc(Cl)cc1)C1CCCN(Cc2cccc3cnccc23)C1 (stereo not given)	6.4	?	6%	1.0%	-8	-4%	-3
NC(=O)Cn1cc(C=C2C(=O)NC(=O)NC2=O)c2ccccc21	?	6%	-18%	·	7	0%[15.4 µM]	8

Assay outcomes deposited in PubChem by National Center for Advancing Translational Sciences (NCATS).
